TRPML1 ag – human mucolipin-1 channel agonism; Q9GZU1; TRPML1-expressing cells, Ca2+ dye fluorescence, FDSS; host cell line not named in the record; reference of the full effect not given here; activation, % (test concentration not listed); hit rate 0.12% among 410,000; AID 624414; in the data active = activation above about 50%; inconclusive = about 30% to 50%; inactive = below about 30%; further: 0% is about no effect; the text of the record puts the active cut at 80%
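TRPML1-DL cells, Tet-induced overnight (~16 h, 37 degrees C), loaded 45-90 min at room temperature with Ca8 no-wash calcium dye plus quencher. FDSS fluorescence: 10 s baseline, compound pin-transfer, 110 s agonist read, then EC80 54-4 (4uM final) and 110 s antagonist read.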
Six1-Eya2 inh – inhibitors of human Six1/Eya2 interaction. AlphaScreen GST-Six1/His-Eya2 binding, biochemical; active compounds read low; control for the full effect not named in the record. AID 651725. Q15475+O00167. activity change, % (concentration not given with the values). hit rate 0.56% among 360,000; in the data active = activity change below about -65%; inconclusive = about -30% to -65%; inactive = above about -30%; further: on the % scale 0 is the no-effect control and ±100 the full control effect
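Six1/Eya2 binding was read as AlphaScreen signal after compounds were pinned into GST-Six1 plus His-tagged Eya2 (5X stock 250/500 nM) in pH 8.0 Tris/NaCl/TCEP buffer, beads added, then incubated 1 h, 37 C, dark.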
CtBP-E1A blk – CtBP/E1A binding inhibition; AlphaScreen GST-E1A/His-CtBP binding, 1536-well; active compounds read low; control for the full effect not named in the record; activity change, % (no concentration beside the values); hit rate 0.49% among 340,000; AID 651724; in the data active means activity change below about -65%; inconclusive means about -30% to -65%; inactive means above about -30%; further: on the % scale 0 is the no-effect control and ±100 the full control effect
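Protein mix (5X: 125 nM each GST-E1A, His-CtBP) was incubated with pinned compound 2 h at 37 deg C in dark, in 50 mM Tris pH 8.0 buffer with 300 mM NaCl. Glutathione donor and nickel acceptor beads followed; AlphaScreen signal read after 1 h.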
PINK1 modulator – PINK1 expression modulation; hit rate 0.2% among 410,000; AID 624263; Potency, µM (titrated, usually from 76.6 µM), for inactives: at the highest dose activation (PINK1 increase), actives largely listed as activators; PINK1 immunofluorescence, high-content cytometry, 24 h; active = well fitted activation curve with a large enough effect; inconclusive = small, poorly fitted or top-dose-only effect; inactive = flat fitted curve, though single readings scatter; cell line not stated here;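 further: potency means the concentration at half of the fitted maximal effect; % of control where 0% means no effect; nearly all actives have a fitted effect of over 65% in size; a mitochondrial uncoupler was the plate control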
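Stable cell line, 250 cells/well, 12 h attachment; compounds pinned at 5 concentrations, 24 h; CCCP control. Fixed with nuclear dye, primary antibodies 12 h at 10 degrees C, secondary plus cell stain; laser-scanning cytometer read.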
D2 ag – activates the human D2 dopamine receptor. P14416. DiscoveRx PathHunter D2 beta-arrestin, luminescence, 90 min; 100% = 57 uM dopamine signal. activation, % (concentration not given with the values). hit rate 0.084% among 360,000. AID 624465; in the data active = activation above about 40%; inconclusive = about 15% to 40%; inactive = below about 15%; further: compound concentration not given in the record; the text of the record calls up to 30% inactive
Target sequence (P14416 whole entry, looked up): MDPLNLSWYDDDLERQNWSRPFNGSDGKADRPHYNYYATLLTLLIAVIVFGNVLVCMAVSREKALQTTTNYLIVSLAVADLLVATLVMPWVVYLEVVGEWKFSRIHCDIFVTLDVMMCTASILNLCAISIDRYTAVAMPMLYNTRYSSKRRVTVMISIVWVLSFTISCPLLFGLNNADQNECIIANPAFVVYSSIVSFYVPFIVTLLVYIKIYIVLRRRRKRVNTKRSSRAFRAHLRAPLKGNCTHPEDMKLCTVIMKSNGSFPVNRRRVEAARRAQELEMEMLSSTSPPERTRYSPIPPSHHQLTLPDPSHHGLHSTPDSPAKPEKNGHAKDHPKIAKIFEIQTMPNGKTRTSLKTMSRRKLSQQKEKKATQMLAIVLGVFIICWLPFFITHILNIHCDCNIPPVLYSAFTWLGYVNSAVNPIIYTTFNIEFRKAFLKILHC
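DiscoveRx PathHunter D2 beta-arrestin cells (2,100/well) attached overnight, then compound-stimulated 90 min at 37 C in HBSS/10 mM HEPES/0.1% Tween-20 buffer; beta-galactosidase complementation read by luminescence after 1 h at ambient temperature. Dopamine 57 uM final (EC100) as control.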
D2 potentiator – positive allosteric modulators of human D2 dopamine receptor | P14416 | DiscoveRx D2 beta-arrestin cells, luminescence, 90 min; 100% = 57 uM dopamine signal | potentiation, % (no concentration beside the values) | hit rate 0.23% among 360,000 | AID 624464; active = potentiation of 50% or more; inconclusive = 30% to 50%; inactive = 30% or less;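 further: compound concentration not given in the record; tested on top of an EC20 dose of dopamine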
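D2 cells co-treated with compound plus 50 nM dopamine (EC20) for 90 min at 37 deg C to detect potentiation. Beta-arrestin recruitment was read as enzyme-fragment luminescence after 1 h at ambient temperature. Full response was set by 57 uM dopamine.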
Starred values were filed as active, the others as inactive; ? = inconclusive; nt = no result given; [ ] = another dose, or the depositor's remark.

Structure,TRPML1 ag,Six1-Eya2 inh,CtBP-E1A blk,PINK1 modulator,D2 ag,D2 potentiator
Cc1ccc(C)c(OCC(=O)Nc2ccccc2C(=O)N2CCOCC2)c1,0.7,-8,4,-0.2%,-2.6,-13
O=C(N/N=C/c1cccnc1)c1cccc(S(=O)(=O)Nc2cccc(Cl)c2)c1,-0.5,-10,0,0.5%,0.7,2
O=C(NNC(=O)c1ccc(NC(=O)c2ccccc2)cc1)c1ccc(F)cc1,-0.8,0,1,0.9%,1.3,-3
COc1ccc(CCNC(=S)N2CCN(S(=O)(=O)c3ccccc3)CC2)cc1,1.6,0,-6,-0.5%,-2.1,-14
Cc1ccc2nc(-c3ccc(NC(=O)CNC4CC4)cc3)sc2c1,1.3,-3,8,5.1%,3.4,-4
CC(=O)N1c2ccccc2Oc2cc3ccccc3cc21,-0.4,-8,-26,-1.1%,-1.1,7
CC(C)c1ccc(/C=C2\SC(=O)N(CC(=O)NCCCn3ccnc3)C2=O)cc1,1.2,-8,nt,0.9%,3.2,-8
CCN(Cc1nc2cc(Cl)ccc2c(=O)[nH]1)C(=O)CN1C(=O)NC2(CCCCC2C)C1=O (configuration not stated),0.1,6,-5,-4.9%,-5.9,8
CNc1nc(SC)nc2ccsc12,0.5,1,5,-0.4%,0.1,-2
COc1ccc(CCC(=O)c2ccc(OC)cc2)cc1,-1.1,24,nt,2.9%,-3.3,-16
OC(CNC1CCCC1)COc1ccc(Cl)cc1 (configuration not stated),0.1,0,5,2.2%,-1.0,-9
FC(F)(F)c1cc(Sc2ccccc2)nc(-c2ccccn2)n1,1.3,5,5,-8.7%[38.3 µM],-1.6,1
CCc1nnc(NC(=O)c2sc3nc(C)cc(COC)c3c2N)s1,1.1,5,4,1.3%,-0.8,-3
CCCCc1nnc(NC(=O)C2CCCO2)s1 (configuration not stated),0.7,4,-4,0.9%[38.3 µM],-0.9,-30
Cc1ccccc1Cc1c(C)nc2nc(SCC(=O)NCCCN3CCCC3)nn2c1C,-0.1,-14,-5,2.6%,2.7,-10
CCOC(=O)/C(=N\Nc1cccc(C(F)(F)F)c1)N(CCOC)CCOC,0.0,-4,7,?,-1.1,17
CC1CCN(S(=O)(=O)c2ccc(C(=O)Nc3nnc(-c4ccccn4)o3)cc2)CC1,-0.6,-12,-8,2.0%,1.2,1
COc1cccc(COC(=O)Nc2ccccc2)c1OC,-1.0,0,20,0.3%,-4.0,-3
CC(=O)COc1ccc2c(C)c(C)c(=O)oc2c1,-0.6,1,-8,-1.0%,2.6,0
Cc1n[nH]c(=O)c2c(NC(=O)COC(=O)/C=C/c3cccc(C(F)(F)F)c3)oc(C)c12,1.7,-1,4,2.9%,1.8,-28

Brought forward from above: 3 entries, then new ones.
Structure,TRPML1 ag,Six1-Eya2 inh,CtBP-E1A blk,PINK1 modulator,D2 ag,D2 potentiator
COc1cccc(COC(=O)Nc2ccccc2)c1OC,-1.0,0,20,0.3%,-4.0,-3
CC(=O)COc1ccc2c(C)c(C)c(=O)oc2c1,-0.6,1,-8,-1.0%,2.6,0
Cc1n[nH]c(=O)c2c(NC(=O)COC(=O)/C=C/c3cccc(C(F)(F)F)c3)oc(C)c12,1.7,-1,4,2.9%,1.8,-28
Cc1ccc(C(=O)CSc2nnc(-c3ccco3)o2)o1,0.7,-3,0,?,-0.1,-1
CC(C)NC(=O)CSCc1cccc(Br)c1,-0.1,4,5,0.5%[38.3 µM],3.0,2
Cc1ccccc1-c1nnc(SCC(=O)NCC2CCCO2)o1 (configuration not stated),-0.1,-5,15,-0.3%,-4.8,-8
Cn1c(=O)c2c(nc(N/N=C/c3cccnc3)n2Cc2ccccc2)n(C)c1=O,-1.2,-4,2,3.5%,3.8,4
Cc1ccc(NC(=O)Cn2c(=O)c3cccn3c3ccccc32)c(Cl)c1,1.9,-3,-7,1.5%,-1.8,-8
O=C(Nc1cnc2ccccn2c1=O)c1ccc(Cl)cc1Cl,-0.8,0,nt,1.1%,3.9,0
CC(=O)C1CCC2C3CCC4CC(=O)CCC4(C)C3C(O)CC12C (configuration not stated),0.5,7,-12,0.3%,1.1,8
COc1ccccc1-c1sc2cc3c(cc2c1C#CCO)OCO3,0.5,-1,0,0.9%,-1.9,0
COc1cc(CN(C(=O)c2cccs2)C2CCS(=O)(=O)C2)cc(OC)c1OC (configuration not stated),-0.9,2,6,-1.0%,2.4,5
CC1CCc2c(C(=O)NCc3ccccn3)csc2C1 (configuration not stated),-0.7,-29,-10,-3.1%,-1.1,1
CC(=O)c1cnc2c(-c3ccc(Cl)cc3)cnn2c1C,-0.7,11,-2,-0.9%,0.4,0
Cc1noc(C)c1C(=O)N(C)CC(=O)Nc1ccc(F)c(F)c1F,0.3,9,-7,-1.5%,-2.0,1
CCOc1ccc(CCNC(=O)COC(=O)c2oc3ccccc3c2COC)cc1OCC,1.4,-1,1,3.4%,1.7,1
COc1cccc(NC(=O)CN(C)CC(=O)Nc2ccc(C)cc2Cl)c1,3.3,0,5,0.3%,-1.8,-1
O=C(CN1CCC2(CC1)OCCO2)c1ccc2cc[nH]c2c1,8.1,-2,-15,-4.5%[38.3 µM],-2.0,-9
O=C(c1ccco1)N1CCC(n2nnc3ccccc32)CC1,-0.5,1,3,1.1%,-0.6,-2
Cc1ccc(CNC(=O)c2ccc(Cl)c(S(N)(=O)=O)c2)n1C,-0.9,-11,1,1.6%,-1.1,-2
C=CCn1ccc2c([N+](=O)[O-])cccc2c1=O,-0.8,7,0,1.7%,-4.0,-22
CC(NC(=O)COc1ccc(S(=O)(=O)N2CCOCC2)cc1)c1ccccc1 (configuration not stated),-0.2,3,0,1.5%,-3.1,-8
CC(C)CNc1nc(Oc2ccc(=O)n(-c3ccccc3)n2)nc(N2CCOCC2)n1,-0.8,-1,4,2.7%,-4.3,5

New compounds follow:
Structure,TRPML1 ag,Six1-Eya2 inh,CtBP-E1A blk,PINK1 modulator,D2 ag,D2 potentiator
CCOc1ccc(NC(=O)Cn2nc(-c3ccccc3Cl)n(CC)c2=S)cc1,0.9,-8,2,-1.9%,-1.8,-8
CN1CCN(CCCCOc2ccc(F)cc2)CC1,0.8,0,4,-0.6%,-2.3,-10
Cc1cc(C)n2nc(-c3cccnc3)nc2n1,0.5,-13,-2,1.0%,-2.2,2
O=C1CC/C=C\C[C@@H](CC(=O)N(CCO)Cc2ccccc2)C(=O)N[C@H](Cc2ccccc2)CO1,-0.2,7,-4,-0.9%,-3.7,-9
O=C(Nc1ccc(C(F)(F)F)cc1)c1cccc(-n2cnnn2)c1,1.9,-3,-2,-0.1%,-1.5,1
COc1cccc(NC(=O)CN(C)C(=O)c2c(-c3ccccc3)noc2C)c1,-0.3,0,-1,1.0%,-1.2,-6
CNC(=O)N1CCC(C(=O)c2c(C)c(C)c(C)c(C)c2C)CC1,-0.3,0,1,-1.4%,-4.0,-12
C[N+](C)(C)CCOC(=O)C1(c2ccccc2)CCCC1,-0.5,6,20,-1.4%,-1.1,-12
O=C(O)CNC(=O)/C(=C/c1cccc([N+](=O)[O-])c1)NC(=O)c1ccco1,0.4,2,-20,1.6%,-6.9,-11
Clc1cccc(N=NN2CCOCC2)c1Cl,-0.9,13,nt,3.0%,-7.1,-17
O=C(COC(=O)c1cc(S(=O)(=O)N2CCCCC2)ccc1Cl)NC1CCCCC1,-1.3,4,2,-0.5%,-1.1,-8
CCO[C@H]1OC(C(=O)N2CCN(Cc3ccc4c(c3)OCO4)CC2)=C[C@@H](C2CCCCC2)[C@@H]1CCCO,-0.7,-5,-16,0.7%,-2.0,-18
CCN(CC(=O)N1CCN(Cc2ccccc2)CC1)S(=O)(=O)c1ccc(C)cc1,0.5,5,-2,-1.2%,2.3,-27
CCCC(C)C(=O)Nc1ccc2c(c1)OCCO2 (configuration not stated),1.0,-2,-1,0.1%,1.0,-15
CC[C@@H](C)[C@H](NC(=O)OC(C)(C)C)c1nnc(S(=O)(=O)Cc2cc(C)ccc2C)o1,3.2,-1,1,5.5%,-3.3,-22
CC1CC(C)CN(C(=O)CSc2nnc(CSc3ncccn3)n2C)C1 (configuration not stated),-0.9,6,4,-1.7%,-1.6,4
Cc1ccc(/C=C2\SC(=S)N(CCCC(=O)Nc3ccc(O)cc3)C2=O)cc1,0.8,-3,-19,0.2%,-0.9,2
COc1cccc(N(C(=O)Cn2nnc(-c3ccc(C)o3)n2)C(C(=O)NC(C)(C)C)c2cccs2)c1 (configuration not stated),3.4,18,0,2.4%,-3.3,-11
OCCOCCNc1ncnc2nc[nH]c12,-0.8,-6,-6,0.8%,0.3,-6
CCc1ccc2c(c1)C(c1cccs1)=NNC(c1cccnc1)=N2,0.0,-14,-2,nt,-2.3,-14

The listing continues:
Structure,TRPML1 ag,Six1-Eya2 inh,CtBP-E1A blk,PINK1 modulator,D2 ag,D2 potentiator
Cc1nn(C)cc1C(C)NCc1c(C(=O)N2CCCCCCC2)nc2ccc(Cl)cn12 (configuration not stated),0.3,3,nt,-0.6%,-0.4,-10
CCCC1(C)Nc2ccccc2-c2nc3ccccc3n21 (configuration not stated),-0.3,2,4,-2.2%[38.3 µM],-0.9,-4
COC(=O)c1cc(OC)c(OC)c(OC)c1[N+](=O)[O-],0.5,0,7,0.8%,-4.0,-13
O=C(CCN1C(=O)C2C3C=CC(C4CC34)C2C1=O)OCC(=O)c1ccccc1 (configuration not stated),-0.2,-2,9,-0.9%,-7.6,-15
Cc1cc(C(F)(F)F)c2c(N)c(C(=O)Nc3cc(C)on3)sc2n1,2.2,-1,-3,22µM*,-0.6,-11
CCc1ccccc1N1CC23C=CC(O2)C(C(=O)O)C3C1=O (configuration not stated),0.6,32,0,1.7%,-6.3,-3

Source: PubChem BioAssay
